Compound activity deposited in PubChem by Fisher Drug Discovery Resource Center.
NPYLR7 ag – activates Aedes aegypti NPYLR7 receptor; HEK293T NPYLR7/Galpha15, GCaMP6s calcium fluorescence; AID 1259423; actives 0.15% (n = 270,000); activation, % at 10 µM; in the data active means activation above about 40%;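 further: 0% = vehicle and 100% = reference agonist at the receptor; some compounds past the cut are filed as inactive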
NPYLR7 ag max-min – also measured in NPYLR7 ag; calls as there; activation, %; measured here: Max-Min RFU normalised activation; some inactives read as strong as hits;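 span of the calcium signal over five minutes; 0% = vehicle and 100% = native peptide agonist; compound fluorescence can raise it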
* marks the source's active call; other numbers are inactive results; & = joins results of further samples. This is a subset; count on the stated rates, not on these rows.

SMILES	NPYLR7 ag	NPYLR7 ag max-min
CCCOc1cc(Nc2ccc(NC(=O)Nc3cccc(Cl)c3)cc2)nc(C)n1	20.0	12.6
CCOC(=O)C(Cc1ccc(Cl)cc1)NC(=O)c1ccc(CSc2nnc3ccccn23)cc1 (stereo unspecified)	-9.6	-15.6
CCOC(=O)c1sc2nc(N)c(C#N)c(CC)c2c1N	3.3	3.1
CCn1cc(CN2CCN(C(=O)c3ccc(OC)cc3)CC2)cn1	7.5	5.7
Cc1ccc(Cl)c2sc(N(CCN3CCOCC3)C(=O)c3cccc(S(C)(=O)=O)c3)nc12	2.1	0.7
CC1CC(C)CN(CCCCNC(=O)c2cn(C)nc2C(F)(F)F)C1 (stereo unspecified)	1.2	0.0
c1ccc2c(c1)CC(Nc1nc(C3CCCC3)nc3c1CNC3)CO2 (stereo unspecified)	2.8	0.4
Cc1cc(C)n(C2CCN(C(=O)c3cccc4ccnn34)C2)n1 (stereo unspecified)	2.3	-0.6
Cc1cnc(C)c(-c2cc(F)c3c(c2)CC(CNC(=O)C24CC5CC(CC(C5)C2)C4)O3)n1 (stereo unspecified)	-3.8	-6.7
Cc1ccc(OCCSc2nc3ccccc3[nH]2)c(C(C)C)c1	-2.8	-6.3
CC(C)(C)C1CCc2sc(-c3nnc(SCCO)o3)cc2C1 (stereo unspecified)	-0.2	-2.2
O=C(Nc1nc(CCC(=O)N2CCCC2)cs1)NC1CCCCC1	2.1	-1.0
COC(=O)NC1(C(F)(F)F)C(=O)NC(C)=C1C(=O)OC (stereo unspecified)	3.9	2.8
COc1ccccc1N1CCN(C(=O)c2csc(CSc3nnc(Cc4ccccc4)n3-c3ccc(Cl)c(Cl)c3)n2)CC1	-5.1	-0.1
CC(=O)Nc1ccc(CC(=O)N2CCN(c3ccc4ccccc4n3)CC2)cc1	10.5	4.8
Cc1nccc(-c2ccccc2)c1C(=O)NCC1(O)CCNC1 (stereo unspecified)	2.8	0.7
Cc1[nH]ncc1C(=O)N1CCC2(CCCN(Cc3ccccc3F)C2=O)C1 (stereo unspecified)	2.1	-0.5
CCCCCN(C(=O)/C=C/c1ccccc1)C(C)c1nc2ccccc2c(=O)n1-c1ccccc1CC (stereo unspecified)	13.9	13.8
CC1CC(NC(=O)CCn2c(=O)oc3ccccc32)CC(C)(C)C1 (stereo unspecified)	-5.5	-9.6
CC(NC(=O)C1CCN(Cc2cccc(C(F)(F)F)c2)CC1)c1ccc(F)cc1 (stereo unspecified)	6.3	1.7
O=C(N1CCc2onc(-c3ccccc3F)c2C1)C1(Cn2cccn2)CC1	3.4	1.0
Cc1cc2oc(=O)cc(C)c2cc1NC(=O)c1sc(C(C)C)nc1C	14.1	-3.4
CC(=O)N1CCN(c2c(C)cnc3c2c(=O)n(CC(=O)NC2CCCC2)c(=O)n3C)CC1	0.9	-1.4
CCN(Cc1ccc(Cl)s1)C(=O)NC(c1ccc2c(c1)OCCO2)C(C)C (stereo unspecified)	-0.6	1.3
N#Cc1nc(-c2ccc(S(=O)(=O)N3CCCCC3)cc2)oc1NCc1ccc2c(c1)OCO2	1.1	8.5
Cc1ccc(S(=O)(=O)NCCc2csc3nc(-c4ccc(Cl)cc4)nn23)cc1C	-5.5	-6.1
Cc1ncc(-c2c(-c3ccccc3)ncn2C)[nH]1	-16.4	-15.1
Cc1ccc(Cl)c(Oc2cccc(Cl)c2C=O)c1	9.1	6.3
Cc1ccc(-c2csc(-n3[nH]c(C)c(N=Nc4ccc([N+](=O)[O-])cc4Br)c3=O)n2)cc1	-5.0	-9.4
CC(C)(C)c1ccc(C(=O)N2CCSC2c2ccc(Cl)cc2Cl)cc1 (stereo unspecified)	11.3	11.9
c1cnc2c(-c3ccc(Cn4ccnc4)cn3)cccc2c1	22.0	14.7
CC1(C(=O)NS(=O)(=O)c2cccs2)CCN1C(=O)c1ccccc1CCc1ccccc1 (stereo unspecified)	6.2	2.4
CN1CCN(c2nc(NCc3ccccc3)c3cnn(C)c3n2)CC1	4.6	1.1
O=S(=O)(CCO)Cc1nc2ccccc2n1C(F)F	6.5	3.4
Fc1cccc(C2CCCCN2Cc2nc(-c3ccc4c(c3)OCO4)no2)c1 (stereo unspecified)	-6.1&-0.7	-7.1&-5.4
CNC1CCC(C(F)(F)F)N(C)C1=O (stereo unspecified)	-6.0	-7.0
COc1ccc(CN(CCN(C)C)CC(O)C(C)C)cc1 (stereo unspecified)	26.9	20.3
COc1cccc(NC(=O)c2ccc(-n3nc(C)cc3C)cc2)c1	4.2	-3.6
CCOC(=O)c1nn(-c2ccc(F)cc2)c(=O)cc1OS(=O)(=O)c1ccc(C)cc1C	-4.7	0.3
O=C(CCCS(=O)(=O)c1ccccc1)N(Cc1ccccn1)c1nc2ccc([N+](=O)[O-])cc2s1	5.1	5.2

Some of these compounds in order of molar mass, lowest first:
SMILES	NPYLR7 ag	NPYLR7 ag max-min
c1cnc2c(-c3ccc(Cn4ccnc4)cn3)cccc2c1	22.0	14.7
Fc1cccc(C2CCCCN2Cc2nc(-c3ccc4c(c3)OCO4)no2)c1 (stereo unspecified)	-6.1&-0.7	-7.1&-5.4
CC1(C(=O)NS(=O)(=O)c2cccs2)CCN1C(=O)c1ccccc1CCc1ccccc1 (stereo unspecified)	6.2	2.4

Next entries follow:
SMILES	NPYLR7 ag	NPYLR7 ag max-min
CN(C)S(=O)(=O)N1CCN(C(=O)c2cccs2)CC1	-3.6	-3.7
N#Cc1cccc(CN2C(=O)C3(SCCN3C(=O)c3ccco3)c3ccccc32)c1 (stereo unspecified)	11.7	14.9
O=S(=O)(Nc1ccc(Br)c(C(F)(F)F)c1)c1ccc(F)cc1	9.0	11.2
CCOC(=O)c1c(C)c(C(=O)C(C)N(C)C(=O)COc2ccc(Cl)cc2)c(C)n1C (stereo unspecified)	1.2	-1.5
CO/N=C(\C(=O)N[C@@H]1C(=O)N2C(C(=O)OCSC(=O)c3ccco3)=CCS[C@H]12)c1csc(N)n1	4.3	7.0
Cc1c(C(=O)N2CCN(C)CC2)cnn1-c1ccc(F)cc1	9.3	10.5
CNCC(=O)NC(C)c1ccc2c(c1)CCCC2 (stereo unspecified)	0.8	-15.6
COc1ccc(CN2CCN(Cc3cn[nH]c3-c3ccccc3)CC2CCO)cc1C (stereo unspecified)	-5.1	-6.8
Cc1cccc(Oc2cc(N3CCN(C(=O)c4ccc(Cl)c(Cl)c4)C(C)C3)ncn2)c1 (stereo unspecified)	7.8	5.7
COCCOC(=O)N[C@@H]1[C@@H](O)C[C@@H]2C[C@H](c3ccccn3)OC[C@@]21O	11.8	27.5

Full records from above. Order of values: NPYLR7 ag, NPYLR7 ag max-min
Profile of COc1ccc(CN2CCN(Cc3cn[nH]c3-c3ccccc3)CC2CCO)cc1C (stereo unspecified) → -5.1, -6.8
Profile of CCOC(=O)c1c(C)c(C(=O)C(C)N(C)C(=O)COc2ccc(Cl)cc2)c(C)n1C (stereo unspecified) → 1.2, -1.5
Profile of CN(C)S(=O)(=O)N1CCN(C(=O)c2cccs2)CC1 → -3.6, -3.7
Profile of COCCOC(=O)N[C@@H]1[C@@H](O)C[C@@H]2C[C@H](c3ccccn3)OC[C@@]21O → 11.8, 27.5
Profile of N#Cc1cccc(CN2C(=O)C3(SCCN3C(=O)c3ccco3)c3ccccc32)c1 (stereo unspecified) → 11.7, 14.9

The list continues:
SMILES	NPYLR7 ag	NPYLR7 ag max-min
Cc1ccc(-n2c(SCc3ccc(C(=O)NCc4ccc(F)cc4)cc3)nnc2-c2cccnc2)cc1	-8.6	3.8
Brc1ccc(-n2nc(-c3ccccc3)n[n+]2-c2nn[nH]n2)cc1	1.3	0.2
Cc1cc(C)n(CCCN(C)C(=O)c2scc3c2OCCO3)n1	3.3	1.4
O=C(Nc1nnc(SCc2ccccc2F)s1)C1CC1	27.5	26.8
CC(=O)c1ccc(NC(=O)CSc2nc3ccccc3n2C(C)=O)cc1	-4.8	-9.5
CCc1ccc(CN2CCOC(CCNS(C)(=O)=O)C2)nc1 (stereo unspecified)	9.5	4.8
CC(C)NC(=O)N1CCN(c2cc(Cl)nc(SCC(=O)NCCc3ccccn3)n2)CC1C (stereo unspecified)	12.5	16.1
Cc1nnsc1CN(C)Cc1cc(C(C)(C)C)ccc1O	5.9	3.5
O=C(NC1CCCCCCC1)C1CCC(C(F)(F)F)NC1=O (stereo unspecified)	7.9	0.1
CCOc1ccc(-c2cc(C(=O)NCc3cc(OC)cc(OC)c3)c3ccccc3n2)cc1	14.4	11.6

Single entries from the results shown:
O=C(NC1CCCCCCC1)C1CCC(C(F)(F)F)NC1=O (stereo unspecified) – NPYLR7 ag max-min = 0.1
CCc1ccc(CN2CCOC(CCNS(C)(=O)=O)C2)nc1 (stereo unspecified) – NPYLR7 ag = 9.5
O=C(Nc1nnc(SCc2ccccc2F)s1)C1CC1 – NPYLR7 ag = 27.5

(continued)
SMILES	NPYLR7 ag	NPYLR7 ag max-min
CCc1nc2ccc(C(=O)NCCCn3ccnc3)cn2c1N(C)Cc1nccn1C	-3.8	-8.7
O=C(Nc1ccc(F)cc1F)N(Cc1cccn1Cc1cccc(Cl)c1)C1CCCCC1	-8.0	-13.3
CCn1c(C)cc(O)c(C(c2ccccn2)N2CCC(Cc3ccccc3)CC2)c1=O (stereo unspecified)	6.6	0.5
CCOC(=O)c1cnc(-c2cccnc2)nc1N1CCCC1C (stereo unspecified)	-2.4	0.4
CC(C)(C)C(=O)C=C1Nc2ccccc2OC1(O)CC(=O)C(C)(C)C (stereo unspecified)	3.6	0.7
COc1ccccc1C(C)NC(=O)Cn1ccc(-c2ccco2)n1 (stereo unspecified)	1.1	-4.1
COc1cccc(C(=O)Nc2nnc(SCc3ccccc3Cl)s2)c1	17.5	25.7
CC(C)n1cnnc1CN(C)C(=O)c1cccc(C#CC(C)(C)O)c1	-1.4	6.3
CCN(CC)C1CCN(c2nncc(-c3ccc(OC)cc3)n2)C1 (stereo unspecified)	-3.8	-5.7
COCCN(C(=O)CCCCl)c1c(N)n(CC(C)C)c(=O)[nH]c1=O	-3.8	-8.6
Cc1cccc(NC(=O)CCNS(=O)(=O)c2ccc(Cl)cc2)n1	6.1	5.7
Cc1cc2nc(-c3ccc(NC(=O)c4ccc([N+](=O)[O-])c(C)c4)cc3)oc2cc1C	-0.4	-8.0
Cc1cccc(C)c1NC(=O)N(CC(=O)N(Cc1ccco1)Cc1cccn1C)C1CC1	-2.2	-8.9
Cc1c(C(=O)NCc2cccc(Cl)c2)sc(=O)n1Cc1ccc2c(c1)OCO2	-0.9	-3.8
COc1ccc(-c2cc(C(=O)O)n(-c3ccc(Cl)c(Cl)c3)n2)c(OC)c1	-11.3	-1.1
CN(CC(O)Cn1cccn1)CC1CCN(CCO)CC1 (stereo unspecified)	3.2	2.7
CC(C)c1cc(N(C)Cc2ccccc2)nc(SCc2ccc(C(=O)O)o2)n1	30.5	44.4
COc1cccc(C(=O)N2CCC3(CC2)OCC(C(=O)N2CCOCC2)N3C(=O)c2cccc(F)c2)c1 (stereo unspecified)	7.9	16.9
COc1cccc(C(=O)N2CCN(c3ccc([N+](=O)[O-])cc3)C(=O)C2C)c1 (stereo unspecified)	-2.5	-3.2
O=C(NCCNc1ccc(Nc2ccncc2)nn1)Nc1ccccc1	9.6	3.1
COc1ccc(CCNC(=O)c2cccnc2N2CCN(C(=O)Nc3cc(C)ccc3Cl)CC2)cc1OC	4.8	-4.4
O=C(c1cccs1)N(Cc1ccc(OS(=O)(=O)c2ccc(F)cc2)cc1)Cc1ccco1	17.1	20.0
O=c1cc(-c2ccc(Cl)cc2)[nH][nH]1	-1.5	-0.4
COc1ccc(NC(=O)c2cnc3cc(C)ccn3c2=O)c(OC)c1	1.7	26.3
O=S(=O)(c1ccc(-n2cnnn2)cc1)c1ccc(-n2cnnn2)cc1	6.3	5.2
Cc1cccc(-c2noc(CN(C)C(=O)c3cc(C4CC4)[nH]n3)n2)c1	10.3	4.9
Cc1ccc(CN2CCCn3cccc3C2c2ccc(C(F)(F)F)cc2)cc1 (stereo unspecified)	-2.1	4.7
COc1cccc(NC(=O)C2(C)CCN2Cc2ccccc2OC(F)F)c1 (stereo unspecified)	5.7	-2.3
Cn1nc(C2CC2)cc1NC(=O)C1(C)CCN1C(=O)C1(c2ccccc2)CC1 (stereo unspecified)	-2.4	20.9

Looked up by compound from the entries so far:
SMILES	NPYLR7 ag	NPYLR7 ag max-min
Cc1ccc(CN2CCCn3cccc3C2c2ccc(C(F)(F)F)cc2)cc1 (stereo unspecified)	-2.1	4.7
Cc1cccc(-c2noc(CN(C)C(=O)c3cc(C4CC4)[nH]n3)n2)c1	10.3	4.9
Cn1nc(C2CC2)cc1NC(=O)C1(C)CCN1C(=O)C1(c2ccccc2)CC1 (stereo unspecified)	-2.4	20.9
COc1ccc(NC(=O)c2cnc3cc(C)ccn3c2=O)c(OC)c1	1.7	26.3
COc1ccc(CCNC(=O)c2cccnc2N2CCN(C(=O)Nc3cc(C)ccc3Cl)CC2)cc1OC	4.8	-4.4
